Bioassay records deposited in PubChem BioAssay by National Center for Advancing Translational Sciences (NCATS).
ClpP mod: qHTS Assay for Activators of ClpP | ATP-dependent Clp protease proteolytic subunit (Bacillus subtilis (strain 168)), P80244 | actives 1.9% (n = 340,000) | purified B. subtilis ClpP, FRET peptide cleavage, 20 min | Potency, µM (top dose mostly 57.5 µM), for the others: top-dose activity change, negative = active; active = well fitted falling curve with a large enough effect; inconclusive = small, poorly fitted or top-dose-only effect; inactive = no such curve, though single readings can be large or run the other way; note: potency is the fitted concentration of half-maximal effect; the source files actives as falling curves though it sought activators and does not explain the sign; nearly all actives have a fitted effect of over 65% in size; many hits overshoot -100%
Target sequence (P80244 whole entry, looked up): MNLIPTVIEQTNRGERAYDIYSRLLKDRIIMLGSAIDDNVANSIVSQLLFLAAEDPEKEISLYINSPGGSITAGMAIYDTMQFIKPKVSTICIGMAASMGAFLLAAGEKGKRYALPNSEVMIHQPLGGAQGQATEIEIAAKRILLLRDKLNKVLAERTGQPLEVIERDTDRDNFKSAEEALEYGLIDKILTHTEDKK
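Purified B. subtilis ClpP, 10 microg/mL final in Tris/HCl pH8 with KCl, BSA, glycerol and Tween-20, cleaved an Abz/nitrotyrosine-quenched decapeptide. Fluorescence (ex 320, em 430) was read at 0 and 20 min at room temperature. Delta was normalized to 5.8 microM ADEP and DMSO/no-enzyme controls.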
gsp ag: gsp mutant agonism | gsp mutant cells, cAMP HTRF, 30 min; control for the full effect not named in the record | actives 0.13% (n = 340,000) | Potency, µM (titrated, usually from 76.9 µM), for the others: at the highest dose activation (cAMP increase), most hits filed as activators; active = well fitted activation curve with a large enough effect; inconclusive = small, poorly fitted or top-dose-only effect, or another doubt; inactive = no such curve, though single readings can be large or run the other way; cell line not stated here;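 note: phosphodiesterase inhibitor Ro 20-1724 added with compounds to block cAMP breakdown; potency is the fitted concentration of half-maximal effect; nearly all actives have a fitted effect of over 60% in size; about a fifth of the inactives were tested at one dose only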
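Cells stably selected in G418 were plated at 2000/well, grown 16-24 hr, then given compounds in DMSO with the PDE inhibitor […] (300 uM solution added) for 30 min at 37C; cAMP was read by HTRF.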
TRPML1 inh: blocks the human TRPML1 channel. Q9GZU1. TRPML1-inducible cells, Ca2+ dye fluorescence, FDSS; stronger effect = lower value; inhibition of EC80 agonist-evoked calcium signal. activity change, negative = inhibition, % (no concentration beside the values). actives 0.02% (n = 390,000). AID 624415; in the data active means activity change below about -50%; inconclusive means about -30% to -50%; inactive means above about -30%;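 note: stimulus is agonist 54-4 at its EC80 concentration; % is set by controls: 0 for no effect and ±100 for the full control effect; compound concentration not given in the record; the text of the record puts the active cut at -80%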
Target sequence (Q9GZU1 whole entry, looked up): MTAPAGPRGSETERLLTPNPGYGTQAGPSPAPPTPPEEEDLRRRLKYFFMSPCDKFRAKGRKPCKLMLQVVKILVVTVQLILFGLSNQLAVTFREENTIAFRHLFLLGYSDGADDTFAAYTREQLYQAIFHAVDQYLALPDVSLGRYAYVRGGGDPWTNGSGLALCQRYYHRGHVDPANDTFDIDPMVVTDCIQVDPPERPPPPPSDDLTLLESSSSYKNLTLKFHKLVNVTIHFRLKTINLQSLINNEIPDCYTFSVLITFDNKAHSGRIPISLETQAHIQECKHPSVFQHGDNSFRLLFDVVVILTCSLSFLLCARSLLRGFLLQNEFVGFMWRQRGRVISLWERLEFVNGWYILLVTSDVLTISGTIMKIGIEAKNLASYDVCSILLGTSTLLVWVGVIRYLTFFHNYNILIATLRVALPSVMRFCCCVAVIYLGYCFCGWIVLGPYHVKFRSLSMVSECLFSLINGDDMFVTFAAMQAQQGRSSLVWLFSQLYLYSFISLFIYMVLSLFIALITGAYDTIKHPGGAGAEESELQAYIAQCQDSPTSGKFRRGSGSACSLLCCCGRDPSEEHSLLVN
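Calcium fluorescence in TRPML1-DL cells induced overnight with Tet: a 110 s read after compound pin addition, then a 110 s antagonist read after challenge with 54-4 at 4 uM final (EC80).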
Menin MLL FP FL: menin-MLL binding inhibition, fluorescein peptide. 290,000 tested, under 10 active. Fluorescence polarization, fluorescein-MLL peptide displacement from menin. FP activity change, % at 61.4 µM. AID 1766; inconclusive = falling polarisation curve, or a change in total fluorescence; inactive = total fluorescence flat and polarisation flat or rising; no compound was filed as active; the % refers to the polarisation; negative = inhibition;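 note: % of control where 0% means no effect; inhibitors lower the polarisation; unlabelled MLL peptide was the positive control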
Sfp PPTase inh: inhibitors of Bacillus subtilis Sfp phosphopantetheinyl transferase; Q9F4F7; Biochemical Sfp PPTase activity, qHTS; Potency, µM, for inactives: max response, negative = inhibition, actives largely listed as inhibitors; actives 3.5% (n = 310,000); AID 1490; active = well fitted inhibition curve with a large enough effect; inconclusive = small, poorly fitted or top-dose-only effect, or another doubt; inactive = no such curve, though single readings can be large or run the other way;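 note: the enzyme is Sfp with the accession as filed and its product quenches rhodamine fluorescence; potency is the fitted concentration of half-maximal effect; 0% = enzyme reaction without inhibitor and -100% = no enzyme wells; top concentration of the series not given in the record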
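Reaction rates are the 30-min fluorescence difference (ex 525, em 598 nm) in wells containing 15 nM Sfp, 5 uM rhodamine-CoA and 12.5 uM BHQ-2-YbbR at pH 7.6 with 10 mM MgCl2.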
TRPV1 PAM: enhances activation of the human vanilloid receptor TRPV1. potentiation, % at 8.33 µM. actives 0.02% (n = 320,000). AID 540277. TRPV1-expressing cells, Fluo-8 calcium influx, capsaicin EC20 potentiation; host cell line not named in the record; control for the full effect not named in the record. Q8NER1; active means potentiation above 80%; inconclusive means 30% to 80%; inactive means below 30%; note: 0% is about no effect
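Cells expressing TRPV1 were dye-loaded with Fluo-8 and read kinetically: 10 s baseline, 3 min after compound (agonist portion), then 2 min after EC20 capsaicin (allosteric enhancer portion). Calcium-bound dye fluorescence at 480/520 nm.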
gsp antagonist: gsp mutant antagonism. gsp-mutant cells, cAMP HTRF, 30 min; control for the full effect not named in the record. Potency, µM (series often up to 76.9 µM), without a hit: top-dose activity change, negative = inhibition, hits mostly inhibitors. actives 0.4% (n = 340,000). AID 624288; active = falling curve of any shape with a large fitted effect; inconclusive = falling curve, mostly with a smaller effect; inactive = flat or rising curve; cell line not stated here;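 note: intracellular cAMP measured with PDE inhibitor Ro 20-1724 present during compound exposure; potency is the fitted concentration of half-maximal effect; % is set by controls: 0 for no effect and ±100 for the full control effect; nearly all actives have a fitted effect of over 65% in size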
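Cells, 2000/well, grown 16–24 h in DMEM 10% FBS with 0.5 mg/ml G418, then compounds plus […] (300 uM addition stock), 30 min at 37C. cAMP read by HTRF (cAMP-d2 and anti-cAMP antibody-K in lysis buffer) after 30 min RT.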
Starred values were filed as active, the others as inactive; ? = inconclusive; nt = no result given; & = joins results of further samples; [ ] = remark or other dose. Not a hit list (roughly 4.9% active in at least one column).

Compound | Menin MLL FP FL | TRPV1 PAM | gsp antagonist | gsp ag | ClpP mod | Sfp PPTase inh | TRPML1 inh
Cc1cc(N2C(=O)C(O)=C(C(=O)c3cccs3)C2c2cccc(O)c2)no1 (configuration not stated) | -1.9 | -2 | 6% | 26% | -0.9% | -7% | 2
Cc1ccc(S(=O)(=O)NN2C(=O)c3ccccc3NC2(C)C)cc1 | 11 | 6 | 7% | -18% | 16µM* | -11% | 7
COc1ccc(Cl)cc1S(=O)(=O)N1CCCC1 | 0.9 | -1 | 0% | 15% | 0.7% | 21% | 5
O=C(c1ccccc1)c1c[nH]c(C(=O)C(Cl)(Cl)Cl)c1 | 2.2 | -2 | 4% | -8% | nt | -5% | 2
Cc1cccc(C(=O)Nc2ccc(C(=O)c3ccccc3)cc2)c1 | nt | nt | ? | -50%[inhibitor][15.4 µM] | nt | nt | 15
Cc1ccc(N2CC(C(=O)N3CCCc4ccccc43)CC2=O)cc1 (configuration not stated) | -2.0 | -10 | -5% | ? | -6.1% | -9% | 0
CCOC(=O)C1CCN(S(=O)(=O)c2ccc3c4c2CC(=O)N4CC(C)S3)CC1 (configuration not stated) | 2.2 | -13 | 1% | 22% | -6.5% | -11% | -5
CC(=O)c1c(C)[nH]c(C(=O)OCC(=O)NCCC(C)C)c1C | 4.4 | -6 | -19% | 1%[15.4 µM] | nt | 10% | -10
N#CC(/C(=N/S(=O)(=O)c1cccs1)c1ccccc1)c1nc2ccccc2[nH]1 (configuration not stated) | -0.3 | 15 | -8% | -9% | -20% | 10% | -4
CC(=O)NCCc1nc2ccccc2n1Cc1cccc(C)c1 | 1.8 | -30 | 0% | 21%[15.4 µM] | nt | 16% | 5
O=C(c1cccs1)N1C(=O)c2cccc3cccc1c23 | 3.0 | -1 | 11% | ? | nt | -2% | 26
CCOc1ccc(C(Nc2ccc(C)cc2)P2(=O)OCC(C)(C)CO2)cc1 (configuration not stated) | 3.5 | -40 | 6% | -5% | 2.6% | 9% | 3
O=C(O)CCCCCCCCc1cn(CN2C(=O)c3ccccc3C2=O)nn1 | 2.2 | -5 | -7% | 6% | -2.8%&-0.5% | -11% | 17
O=C(NCCCCCCNC(=O)OC1CCS(=O)(=O)C1)OC1CCS(=O)(=O)C1 (configuration not stated) | -2.3 | -8 | 2% | 6% | -0.1% | 11% | 5
Cc1ccc(NC(=S)NC(CO)C(O)c2ccc([N+](=O)[O-])cc2)cc1 (configuration not stated) | 3.1 | 2 | 6% | -15%[15.4 µM] | nt | -10% | 4
COc1cccc(-c2csc3nnc(SCC(=O)NCc4cccs4)n23)c1 | 1.2 | -6 | -5% | -30% | -0.9% | 9% | 39
Cc1cc(F)ccc1S(=O)(=O)N1CCCOC1CNC(=O)C(=O)NC1CCCCC1 (configuration not stated) | nt | 6 | -5% | 29% | -1.2% | 12% | 5
O=C(CCSc1nnc(-c2ccncc2)o1)Nc1ccc(F)cc1 | 5.5 | -4 | -9% | -2% | -2.4% | -1% | 9
CN1CCN(c2ccc(S(=O)(=O)N3CCCCC3)cc2N)CC1 | nt | -10 | 0% | 13% | -1.8% | nt | -1
Cc1cccc(C)c1NC(=O)CSc1nc(C)c(CC(=O)c2ccc(Br)cc2)c(C)c1C#N | 0.3 | 6 | 19% | ? | 28µM* | -17% | 8
CCCCOc1ccc(C2OC34CCCCC3C(C#N)(C#N)C2(C#N)C(=N)O4)cc1 (configuration not stated) | ? | -1 | 2% | 1%[15.4 µM] | 0.8% | 8% | -1
CN(C(=O)c1ccc(-c2nn(C)c(=O)c3ccccc23)cc1)C1CCCCC1 | nt | -11 | -17% | 2%[15.4 µM] | -2.1% | 6% | 0
O=C(O)c1ccc(S(=O)(=O)N2CCCCCCC2)cc1 | nt | nt | nt | -34%[inhibitor] | -0.2% | nt | -1
O=C(c1ccc(OC2CCN(C/C=C/c3ccc(F)cc3)CC2)cc1)N1CCCCC1 | nt | 2 | -7% | -19% | -1.7% | 9% | 20
CCn1c(SCC(=O)Nc2ccc(Cl)cc2)nc2nc3c(cc2c1=O)CCCC3 | 0.9 | 27 | -3% | -41% | -2.5% | ? | 1
Cc1onc(-c2ccccc2)c1-c1n[nH]c(=S)n1-c1ccccc1Cl | -1.7 | -1 | -4% | ? | 0.2% | 13% | 2
O=C(N/C(=C\c1ccc(Br)cc1)C(=O)N1CCOCC1)c1ccco1 | -0.4 | 19 | 0% | 2%[15.4 µM] | -2.1% | 15% | 22
COc1ccc(OC)c(NP2(=O)OCC(C)([N+](=O)[O-])CO2)c1 (configuration not stated) | nt | nt | 4% | -7% | 1.1% | nt | 20
Cc1ccc(CNC(=O)C2CCCN2S(=O)(=O)c2ccc3c(c2)C(C)(C)C(=O)N3C)cc1 (configuration not stated) | 3.2 | 11 | -4% | 31% | 0.4% | 12% | 3
COc1ccc(C2CC(C)=NN2C=O)cc1OC (configuration not stated) | 4.6 | 3 | -2% | -18% | -1.3% | 10% | -14
CC(=O)NC(N1CCCCC1)C(F)(F)C(F)(F)C(F)(F)C(F)F (configuration not stated) | 6.1 | 16 | 0% | 5% | 0.2% | 20% | -17
CCn1cc(/C=C(\NC(=O)c2ccccc2F)C(=O)NCCCN2CCOCC2)c2ccccc21 | 1.4 | -3 | -5% | 20% | -1.6% | 10% | 19
Nc1ccc(C2=Nc3cccc4cccc(c34)N2)cc1 | 8.6 | -9 | -12% | -19% | 0.1% | 9% | -1
O=C(COc1ccc(Br)cc1Br)NC(=S)Nc1cccc(CO)c1 | 1.2 | 13 | 10% | ? | -18% | -14% | 8
COc1ccc(Cl)cc1S(=O)(=O)N1CCC(C(=O)NCCC2=CCCCC2)CC1 | nt | 7 | -6% | -45%[inhibitor] | 0.9% | 5% | -5
Cc1ccnc(SC2CC(=O)N(c3ccc([N+](=O)[O-])cc3)C2=O)n1 (configuration not stated) | 4.0 | -2 | 4% | ? | -1.5% | 2% | 25
CCC(C)Sc1ccc([C@@H]2[C@@H]3C(=O)N(CC)C(=O)[C@@H]3[C@]3(C(=O)OC)CCCCN23)cc1OC (some centres not stated) | nt | nt | -9% | -4% | -0.7% | nt | -11
COc1ccc2c(c1)[C@H]1[C@H](CO2)[C@H](c2ccccc2)[C@]2(C)C(=O)Nc3cc(OC)c(OC)cc3C(=O)N12 | nt | ? | -10% | -28% | -5.9% | nt | 2
COc1ccc(C2C(C(C)=O)=C(O)C(=O)N2CCc2c[nH]c3ccccc23)cc1OC (configuration not stated) | 0.6 | -2 | 4% | -36%[inhibitor] | -1.0% | -6% | 2
Cc1cc(/C=C2\SC(=Nc3ccc(F)cc3)NC2=O)c(C)n1-c1ccc(S(N)(=O)=O)cc1 | 8.4 | 3 | 1% | -1% | -1.5% | -23% | 48
COc1ccc(CNC(=O)c2cccc(-c3ccc(C)c4ccccc34)n2)cc1 | 0.7 | -7 | 1% | -31% | 25µM* | -2% | 20
COC(=O)c1cc(OC)c(OC)cc1N | -1.9 | 5 | -10% | 8% | -20% | 2% | 27
C=CCC[C@@H](Cc1ccc(F)cc1)C(=O)OC[C@@H](C)NC(=O)[C@@H](CC=C)CC(=O)N[C@H](CO)Cc1ccccc1 | nt | nt | -27% | nt | 1.8% | nt | -5
CC1(C)Cc2cccc(OCC(=O)O)c2O1 | 4.6 | 4 | 11% | 22% | 0.5% | 30%[activator] | -1
CCOC(=O)CSc1n[nH]c(=S)s1 | 1.6 | -4 | 0% | -1%[15.4 µM] | nt | ? | -1
CCCCCCCC(=O)NC(Nc1ccc(S(N)(=O)=O)cc1)C(Cl)(Cl)Cl (configuration not stated) | 2.5 | -19 | 14% | -17% | 1.6% | 13% | 14
Cc1[nH]n(-c2ccccc2)c(=O)c1C(C[N+](=O)[O-])c1ccc(F)cc1 (configuration not stated) | 0.1 | 7 | 8% | 3% | 0.7% | 2% | 47
COc1ccc(C(=O)Sc2ccc(Cl)cc2)cc1OC | -3.2 | -2 | 1%[15.4 µM] | 16% | 4.0% | 13% | 24
CCOc1cccc(-c2nnc3sc(-c4cc(OC)c(OC)c(OC)c4)nn23)c1 | -1.2 | -2 | -9% | -7% | -3.6% | -12% | 13
CCOC(=O)c1oc2ccccc2c1N | 4.1 | 0 | 10% | 4% | ? | 3% | -2
COc1ccc(C)cc1S(=O)(=O)N1CCCC(C(=O)NC2CC2)C1 (configuration not stated) | nt | 25 | 1% | -12% | 0.3% | 13% | -6
CCOc1ccc(Cn2c(=O)sc3ccccc32)cc1OC | 1.5 | -10 | -10% | -11% | -1.3% | -18% | 0
N#CC(c1ccncc1)(c1ncc(C(F)(F)F)cc1Cl)N1CCOCC1 (configuration not stated) | -0.1 | -1 | nt | 2%[15.4 µM] | nt | -8% | -5
Cc1ccccc1NC(=O)Cc1nnc(N)s1 | -1.6 | nt | 6% | 9%[15.4 µM] | 0.9% | 16% | 33
Cc1cc(C)cc(NC(=O)CSc2nc3c(oc4ccccc43)c(=O)n2-c2ccccc2)c1 | -2.7 | 3 | 9% | -6% | -5.8% | 6% | 16
O=C(CCc1nnc2ccc(N3CCC4(CC3)OCCO4)nn12)Nc1cc(F)ccc1F | nt | ? | 4% | ? | -1.4% | 18% | 12
COc1cc(OC)cc(C(=O)NNC(=S)Nc2ccc(S(N)(=O)=O)cc2)c1 | -0.5 | ? | 6% | -30% | nt | -8% | -1
Cn1cc(Br)c(C(=O)n2cc(Br)cn2)n1 | -0.4 | ? | -6% | 2%[15.4 µM] | nt | 3% | -4
Cc1nonc1NC(=O)CSc1nc2ccccc2cc1C#N | ? | -1 | -1% | ? | -0.7% | -24% | 7
O=C(COC(=O)C12CC3CC(CC(C3)C1)C2)NCCc1ccccc1 | 1.4 | -4 | 0% | 8% | 0.0% | -8% | 10
COc1ccc(OC)c(NC(=O)CNC(=O)c2ccc([N+](=O)[O-])cc2)c1 | -2.5 | -1 | 2% | 9% | -0.6% | 15% | -12
